Screening results from PubChem BioAssay.
KCNQ2 block: KCNQ2 potassium channel inhibitors, primary screen, cell-based, CHO-K1, FluxOR thallium flux, B-score (AID 2156) | Potassium voltage-gated channel subfamily KQT member 2 (Rattus norvegicus), O88943 | 20 min; hits give low values; only compounds with negative scores are shown here; some inactives read as strong as hits | B-score at 10 µM | 310,000 tested, 1.1% active;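 active = fluorescence ratio B-score at most minus 3 library SDs, with starting brightness B-score within 2 library SDs, cut at about -5.5 in these data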
Target sequence (O88943 whole entry, looked up): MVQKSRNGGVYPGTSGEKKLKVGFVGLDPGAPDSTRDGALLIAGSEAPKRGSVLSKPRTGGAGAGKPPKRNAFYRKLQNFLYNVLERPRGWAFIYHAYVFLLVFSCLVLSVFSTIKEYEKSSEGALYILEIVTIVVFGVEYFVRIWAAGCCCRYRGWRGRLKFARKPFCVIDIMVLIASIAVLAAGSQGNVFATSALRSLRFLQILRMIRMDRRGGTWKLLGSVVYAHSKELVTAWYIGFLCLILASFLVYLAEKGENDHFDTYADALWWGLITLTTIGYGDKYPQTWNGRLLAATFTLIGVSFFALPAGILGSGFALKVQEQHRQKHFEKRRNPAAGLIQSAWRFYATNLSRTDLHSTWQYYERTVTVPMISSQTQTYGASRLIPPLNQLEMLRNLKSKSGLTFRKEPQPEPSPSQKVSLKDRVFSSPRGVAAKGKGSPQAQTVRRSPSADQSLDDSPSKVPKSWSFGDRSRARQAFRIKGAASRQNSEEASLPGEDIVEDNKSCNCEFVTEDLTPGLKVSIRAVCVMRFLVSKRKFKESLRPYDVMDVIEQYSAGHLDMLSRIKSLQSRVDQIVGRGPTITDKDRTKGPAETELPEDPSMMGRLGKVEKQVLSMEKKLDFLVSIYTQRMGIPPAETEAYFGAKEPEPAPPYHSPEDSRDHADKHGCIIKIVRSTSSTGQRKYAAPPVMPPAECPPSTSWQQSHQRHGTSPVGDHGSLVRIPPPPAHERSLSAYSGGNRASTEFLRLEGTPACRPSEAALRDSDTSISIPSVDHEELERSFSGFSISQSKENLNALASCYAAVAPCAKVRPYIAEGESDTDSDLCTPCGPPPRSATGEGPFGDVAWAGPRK
KCNQ2 block baseline: further read-out of KCNQ2 block, marked with its call; B-score; measured here: initial fluorescence intensity artifact check;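 brightness before thallium and not channel activity; 0 = typical well and far values either way flag optical interference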
* hit, by the source's call; i = inactive. This is a subset; count on the stated rates, not on these rows.

Second line of a record – KCNQ2 block	KCNQ2 block baseline
1	O=C(CN1CCN(Cc2ccccc2)CC1)Nc1nnc(C(F)(F)F)s1
  i	-0.42
2	COc1cc(/C=N/NC(=O)c2cccs2)ccc1O
  i	-0.78
3	Cc1ccc(O)c(N=Nc2ccc(S(=O)(=O)N3CCCC3)cc2)c1
  i	-0.77
4	Nn1c(SCC(=O)NCCC2=CCCCC2)nnc1C1CCCCC1
  i	-0.59
5	COc1cc(C(c2nnnn2C(C)(C)C)N2CCN(C)CC2)cc(OC)c1OC (configuration not stated)
  i	-1.86
6	C=CCn1c(O)c(N=NC(=O)CNC(=O)c2cccs2)c2ccccc21
  i	1.53
7	C=CCn1c(SCC(N)=O)nc2sc3c(c2c1=O)CCC3
  -9.26*	0.1*
8	CCn1c(SCc2ccc(C(=O)O)cc2)nnc1-c1ccc(Cl)cc1
  i	-0.02
9	O=C(c1nc2ccc(Cl)cn2c1CN1CCCC(CO)C1)N1CCc2ccccc2C1 (configuration not stated)
  i	0.23
10	CC(C)(C)c1ccc(C(=O)Nc2cccc([N+](=O)[O-])c2)cc1
  i	-0.01
11	O=C(CSC1CCCCC1)N1CCN(c2ccccc2)CC1
  i	1.97
12	CCOc1ccc(N(CC(=O)NCCSCc2ccco2)S(=O)(=O)c2ccc(C)cc2)cc1
  i	-1.77
13	C/C(N)=C(/C#N)C(=O)COC(=O)CC1CCCC1
  i	-0.01
14	O=C(COC(=O)c1ccco1)Nc1nnc(-c2ccccc2)o1
  i	0.21
15	O=C(CCN1CCN(CCO)CC1)Nc1ccc(F)c(F)c1
  i	-1.31
16	O=C(O)COc1ccc(Oc2ccccc2)cc1
  i	0.05
17	COc1cc(/C=C(\C#N)c2ccccn2)ccc1OCC(=O)Nc1cccc(C(F)(F)F)c1
  i	0.19
18	CCc1cccc(C)c1NC(=O)CN(C)Cc1ccc(Br)cc1
  i	2.04
19	O=C(O)C1(c2ccccc2)CCN(S(=O)(=O)c2ccc(Br)cc2)CC1
  i	0.75
20	CCN(C(=O)COC(=O)c1ccc(Cl)cc1N)C1CCCCC1
  -6.4*	1.06*
21	O=C(NCc1nnc(SCC(=O)N2CCCC2)o1)c1ccc(F)cc1
  i	0.84
22	O=C(CCN1C(=O)C2C3C=CC(C3)C2C1=O)Nc1ccccc1 (configuration not stated)
  i	-2.79
23	CC(=O)c1nn(-c2cccc(C(F)(F)F)c2)c(=O)[nH]c1=O
  i	-3.4
24	CN1CCN(C(=O)c2ccccc2NC(=O)c2sc3ccccc3c2Cl)CC1
  i	-1.27
25	COc1ccc(Br)cc1C(=O)Nc1cc(C)cc(C)c1
  i	0.08
26	Cc1ccccc1/C=C1\CCCc2ccccc2C1=O
  i	-0.33
27	O=C1CCCCN1CCCC(=O)N1CCCC(Nc2ccc(F)cc2)C1 (configuration not stated)
  i	-1.15
28	Cc1ccc(O)c(CNc2cnc3ccccc3c2)c1
  i	-2.8
29	CC(C)COc1ccc(C(=O)Nc2ccc(SC(F)F)cc2)cc1
  i	2.14
30	COc1cc(C2=NOC(C(=O)Nc3ccc(C)cc3)C2)cc(OC)c1OC (configuration not stated)
  i	1.25

Of the compounds above, these have a furan ring, fused or not.
Second line of a record – KCNQ2 block	KCNQ2 block baseline
12	CCOc1ccc(N(CC(=O)NCCSCc2ccco2)S(=O)(=O)c2ccc(C)cc2)cc1
  i	-1.77
14	O=C(COC(=O)c1ccco1)Nc1nnc(-c2ccccc2)o1
  i	0.21

Profiles as entered above. Order of screens: KCNQ2 block, KCNQ2 block baseline
O=C(NCc1nnc(SCC(=O)N2CCCC2)o1)c1ccc(F)cc1 is listed with i, 0.84
CCN(C(=O)COC(=O)c1ccc(Cl)cc1N)C1CCCCC1 is listed with -6.4*, 1.06*

(listing goes on)
Second line of a record – KCNQ2 block	KCNQ2 block baseline
31	Cc1nn(-c2ccccc2)c2sc(C(=O)OCc3nnc(-c4ccccc4)o3)cc12
  i	-0.38
32	Cc1cccc(N2CC(C(=O)Nc3ccc4c(c3)OCO4)CC2=O)c1C (configuration not stated)
  i	0.41
33	Cc1cccc(C)c1NC(=O)C(c1ccccc1)N1CC(=O)Nc2ccccc21 (configuration not stated)
  i	-0.63
34	CCOC(=O)CN(C(=O)Cn1nnc2ccccc21)C(C(=O)NCCOC)c1ccccc1 (configuration not stated)
  i	-0.58
35	O=C(Cn1nc(-c2ccccc2)ccc1=O)N1CCOCC1
  i	-1.67
36	COCCn1nnnc1C(C(C)C)N1CCC(Cc2ccccc2)CC1 (configuration not stated)
  i	0.28
37	CCn1c(SCC(=O)Nc2ccccc2OC)nnc1-c1cnccn1
  i	0.11
38	CC(=O)C1=C(O)C(=O)N(Cc2ccccc2)C1c1ccco1 (configuration not stated)
  i	0.02
39	CCCCCNCc1ccc(OCc2ccc(Cl)nc2)c(OC)c1
  i	-1.32
40	c1ccc(N2CCOCC2)c(Nc2nc3ccccc3n3cnnc23)c1
  -6.33*	0.98*
41	Clc1cc2c(cc1/C=N/Nc1nc(N3CCOCC3)nc(N3CCOCC3)n1)OCO2
  i	-0.41
42	O=C(CN1CCN(c2cccc(Cl)c2)CC1)N1CCCC1
  i	1.87
43	COc1ccc(C2=NN(C(=O)c3ccccc3C(=O)O)C(c3ccccc3O)C2)cc1 (configuration not stated)
  i	-0.56
44	O=C1Cc2ccccc2C(=O)N1c1ccccc1
  i	-1.86
45	Cc1ccc(S(=O)(=O)NC2(C(=O)O)CCCCC2)cc1
  i	-0.39
46	COc1ccc(CN=Cc2[nH]c3ccc(Br)c(Cl)c3c2O)cc1
  i	6.27
47	Cc1ccc(S(=O)(=O)N[C@H](C(=O)N2CCC(C(=O)N[C@@H](CC(=O)O)C(=O)O)CC2)C(C)C)cc1
  i	0.2
48	C/C(=N/NC(=O)c1ccc(Br)s1)c1ccncc1
  i	-1.91
49	Cc1cc(N2C(=O)Cc3ccccc3C2=O)ccc1C(C)C
  i	1.58
50	Cc1cccc(OCC(=O)N2CCC(N3CCOCC3)CC2)c1
  i	0.74
51	Cc1ccc2c(c1)S/C(=C/c1ccc[n+](C)c1)N2CCO
  i	0.82
52	CN(CCC1CCOCC1)C(=O)CC1C(=O)NCCN1C/C=C/c1ccccc1 (configuration not stated)
  i	1.16
53	CCOc1cccc(CN2CCCC(CCC(=O)NCc3ccccc3F)C2)c1O (configuration not stated)
  i	0.51
54	Cc1cccc(OCC(=O)NC(=S)N2CCCc3ccccc32)c1
  i	-0.44
55	COc1ccc(NS(=O)(=O)c2cc(NC(=O)c3ccc(C)o3)ccc2N2CCCCC2)cc1
  i	0.04
56	O=C(Nc1cccc(-c2nc3ccccc3[nH]2)c1)c1cccc(NC(=O)c2ccco2)c1
  i	1.27
57	CCN(CC)CCC(=O)NN
  i	-2.05
58	O=C(Nc1nc2c(s1)CCCC2)c1cc(-c2ccc3c(c2)OCO3)nc2ccccc12
  i	-0.18
59	CC12CCC(=O)N1c1c(sc3nc(N4CCOCC4)c4c(c13)CCCC4)C(=O)N2 (configuration not stated)
  i	-1.31
60	CC(C)(C)OC(=O)CNC(=O)c1[nH]cnc1C(=O)Nc1ccc(CNC(=O)OC(C)(C)C)cc1
  i	-0.4

Copied from the list.
Value for O=C(Nc1cccc(-c2nc3ccccc3[nH]2)c1)c1cccc(NC(=O)c2ccco2)c1 in KCNQ2 block baseline: 1.27
Value for CN(CCC1CCOCC1)C(=O)CC1C(=O)NCCN1C/C=C/c1ccccc1 (configuration not stated) in KCNQ2 block baseline: 1.16
Value for Cc1ccc(S(=O)(=O)N[C@H](C(=O)N2CCC(C(=O)N[C@@H](CC(=O)O)C(=O)O)CC2)C(C)C)cc1 in KCNQ2 block baseline: 0.2
Value for Clc1cc2c(cc1/C=N/Nc1nc(N3CCOCC3)nc(N3CCOCC3)n1)OCO2 in KCNQ2 block baseline: -0.41

Next records:
entry	SMILES	KCNQ2 block	KCNQ2 block baseline
61	Cc1cccc(NC(=O)Nc2cccc(F)c2)n1	i	-3.19
62	CCCCCCCCCCOC(=O)Cn1c(COc2ccccc2)[n+](C)c2ccccc21	i	23.4
63	Cc1cc(C)n2ncc(/C(N)=N/OC(=O)Nc3ccc(Cl)cc3)c2n1	i	-0.48
64	Cc1cc(C)c2c(N)c(C(=O)N/N=C/c3cccs3)sc2n1	i	0.14
65	O=C(NC(=S)Nc1ccc2c(c1)OCCO2)c1ccc(F)cc1Cl	i	-2.23
66	CC1(C)CC(=O)C2=C(C1)OC(N)=C(C#N)C21C(=O)N2CCCc3cccc1c32 (configuration not stated)	i	-1
67	O=S(=O)(c1ccc(F)cc1)N1CCN(CC(O)COCc2cccs2)CC1 (configuration not stated)	i	-0.37
68	Cc1cc(-c2cn3ccccc3n2)c(C)n1-c1ccccc1	i	-0.25
69	COCCn1cc(C(=O)N2CCN(C)CC2)c2c3ccccc3n(C)c2c1=O	i	1.65
70	CC(C)(C)NC(=O)/C(=C\c1ccccc1F)NC(=O)c1ccc([N+](=O)[O-])cc1	i	0.17
71	CCCCCOC(=O)C1=C(C)NC(=O)NC1c1ccc2c(c1)OCO2 (configuration not stated)	i	2.04
72	Cc1ccc(NC(=O)CSc2nc(CSc3ccc(C)cc3)cc(=O)[nH]2)cc1	i	-0.52
73	COc1ccc(C(=O)NNC(=O)CSc2ccccc2)cc1	i	0.74
74	Cc1cc(Br)cc2c(C(=O)NCC3CCCO3)cc(-c3cccs3)nc12 (configuration not stated)	i	1.23
75	Cc1ccc(NC(=S)NC(=O)c2ccccc2)cc1NC(=S)NC(=O)c1ccccc1	i	1.56
76	C=C[C@]1(C)C[C@@H](OC(=O)CSCCN(CC)CC)[C@]2(C)C(C)CC[C@]3(CCC(=O)[C@H]32)[C@@H](C)[C@@H]1O (some centres not stated)	i	0.6
77	O=C(CCn1c(=O)oc2ccc(Cl)cc21)NCCCN1CCOCC1	i	-0.41
78	C#CCn1c(=NC(=O)CN2C(=O)CCC2=O)sc2cccc(C)c21	i	-0.01
79	C=CCN(C(=O)c1ccc2c(c1)nnn2C)c1ccccc1	i	-0.01
80	Cc1cc(C)cc(-n2nnc(C(=O)NCc3ccc4c(c3)OCO4)c2N)c1	i	-0.74
81	N/C(=N\OC(=O)c1ccco1)c1ccc(Br)cc1	i	-0.04
82	O=C(C1=C(O)C(=O)N(CC2CCCO2)C1c1ccc(Cl)cc1)c1ccco1 (configuration not stated)	i	0.96
83	CN(C)S(=O)(=O)c1cccc(C(=O)NCCCn2ccnc2)c1	i	-0.11
84	O=C(Oc1cccc(C(=S)N2CCOCC2)c1)c1cccc([N+](=O)[O-])c1	i	-0.53
85	CCOc1cc(/C=N/O)cc(Br)c1OCC	i	1.15
86	Cc1cccc(-c2cc(C(=O)Nc3ccncc3)c3ccccc3n2)c1	i	0.45
87	CCOc1ccccc1OCC(=O)Nc1ccc(S(=O)(=O)Nc2ncccn2)cc1	i	-0.16
88	O=C(c1ccccn1)N(Cc1ccco1)C1(C(=O)NC2CCCCC2)CCCCC1	i	0.76
89	CC(=O)Nc1ccc(S(=O)(=O)N2CCc3ccccc3C2CC(=O)O)cc1 (configuration not stated)	i	-1.13
90	O=C(CNC(=O)c1ccc(Br)cc1)c1ccc(Br)cc1	i	0.36
91	O=C(CN1C(=O)NC2(CCOc3ccccc32)C1=O)c1ccc(Br)cc1 (configuration not stated)	i	4.26
92	O=C(O)Cn1cc(/C=N/NC(=O)c2cc3cc(Br)ccc3o2)c2ccccc21	i	0.6
93	COc1ccc(C2=NS(=O)(=O)N(C)C(C(=O)NCc3ccccn3)=C2)cc1OC	i	-0.3
94	O=C1NCC(O)=C1C=Nc1ccccc1O	i	0.47
95	CC(C(=O)Nc1ccccc1)N(c1cccc(Cl)c1)S(C)(=O)=O (configuration not stated)	i	3.06
96	O=C(Cc1csc(-c2ccccc2)n1)NCc1cccs1	i	-1.66
97	CSc1ccc(Cl)c(C(=O)Nc2ccc(Cl)cn2)c1	i	-4.28
98	CCN(CC)C(=O)C1CCCN(C(=O)Nc2ccc(NC(=O)N3CCCC(C(=O)N(CC)CC)C3)cc2)C1 (configuration not stated)	i	1.83
99	CCCCOC(=O)C[N+](C)(C)CCOC1CC2CCC1(C)C2(C)C (configuration not stated)	i	-1.62
100	COc1ccccc1N1CCN(CC(=O)Nc2sccc2C#N)CC1	i	5.46
101	S=c1[nH]nc(-c2ccccn2)n1/N=C/c1cccc(Cl)c1	i	0.75
102	O=C(O)c1ccc(Cl)c(S(=O)(=O)N(Cc2ccccc2)c2ccccc2Cl)c1	i	-0.56
103	Oc1ccccc1C=NCCCCCCN=Cc1ccccc1O	i	0.58
104	Cc1ccc(C(=O)NCCc2ccccc2)cc1	i	-0.67
105	COc1ccc(N2CC(C)Cn3c2nc2c3c(=O)n(Cc3ccc(F)cc3)c(=O)n2C)c(OC)c1 (configuration not stated)	i	-0.72
106	COc1ccccc1/C=C(/C(=O)OCC(=O)Nc1cc(C)ccc1C)c1ccccc1	i	0.78
107	C=CCc1ccccc1OCCOc1ccc([N+](=O)[O-])cc1/C=N/NC(N)=O	i	1.53
108	CN(CC(=O)NCc1ccco1)S(=O)(=O)c1ccc2c(c1)c(=O)n(C)c(=O)n2C	i	-2.14
109	Cc1ccc(C(C[N+](=O)[O-])c2c(N)n(C)c(=O)n(C)c2=O)cc1 (configuration not stated)	-8.04*	0.09*
110	COCCNC(=O)CCn1c(=O)oc2ccccc21	i	-0.68
111	O=C(CN1CCN(Cc2ccccc2Cl)CC1)N/N=C/C=C\c1ccccc1[N+](=O)[O-]	i	-1.01
112	CSc1ccc(C(=O)C2CCCN(C(=O)CCCn3cncn3)C2)cc1 (configuration not stated)	i	1.21
113	O=C(Nc1nc(=O)n(C(=O)C2CC2)s1)c1ccccc1	i	-1.71
114	O=C(c1ccc(Br)o1)N1CCc2ccccc21	i	-0.34
115	Cc1cc(C)cc(NC(=O)CSc2nc3c(oc4ccccc43)c(=O)n2-c2ccccc2)c1	i	0.74

Given with each value named: part of the list above
108: CN(CC(=O)NCc1ccco1)S(=O)(=O)c1ccc2c(c1)c(=O)n(C)c(=O)n2C
  KCNQ2 block: i | KCNQ2 block baseline: -2.14
94: O=C1NCC(O)=C1C=Nc1ccccc1O
  KCNQ2 block: i | KCNQ2 block baseline: 0.47
92: O=C(O)Cn1cc(/C=N/NC(=O)c2cc3cc(Br)ccc3o2)c2ccccc21
  KCNQ2 block: i | KCNQ2 block baseline: 0.6
